# Screening data as filed in PubChem.
# fixLJ activator – B. multivorans fixK reporter activation; B. multivorans fixK-promoter GFP reporter, 18 h; active compounds read high; z-score (no concentration beside the values); 29,000 tested, 0.3% active;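 active = replicate mean overnight rise in green fluorescent reporter signal, 3 or more SD over negative controls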;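 also: score is relative to vehicle wells of the plate; 300 nL library stock went into each well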
# The depositor's hits bear a star; & = joins results of further samples.
SMILES,fixLJ activator
Cc1cc(CC(=O)N(C)C(C)c2ccc3c(c2)OCCO3)on1 (stereo not drawn),0.78
Cc1nc(SCC(=O)Nc2ccc(C(=O)O)cc2)n[nH]1,-2.18
COc1cc(OCc2ccccc2)ccc1CN1CC(O)C(Cc2cc(C)no2)C1 (stereo not drawn),-2.99
COc1ccc(N2CCN(S(=O)(=O)c3ccc(CC(C)C)cc3)CC2)cc1,0.02
CCN(CC)S(=O)(=O)c1ccc2c(c1)N(CC(=O)N(C)Cc1ccccc1)C(=O)CO2,-0.38
CCC1CCCCN1C(=O)Cn1c(=O)oc2cc(S(=O)(=O)N3CCCCC3)ccc21 (stereo not drawn),-0.69
COCCCN1CN=C(NS(=O)(=O)c2ccc(NC(C)=O)cc2)NC1,-0.28
Cc1cc(Cl)ccc1NC(=O)CN1C(=O)C(=O)c2ccccc21,-2.05
COc1ccc(CCNC(=O)CCS(=O)(=O)c2cc(Br)cc3c2N(C(C)=O)CC3)cc1OC,-0.08
CCC(NC(=O)Nc1ccc(N2CCCC2=O)c(C)c1)c1ccnn1C (stereo not drawn),0.5
COCCN(Cc1cnn(C)c1)C(=O)Nc1ccc2c(c1)COC2=O,-1.59
Cn1cnc(C(=O)N2CCC3(CC2)OCCc2cc(C(=O)NC4CC4)sc23)c1,-0.36
Nc1nc2c(ncn2COCCO)c(=O)[nH]1,-1.57
CNC(C)(C)Cc1ccccc1,-1.39
COc1cc(-c2noc(CN3CCN(c4ccccc4)CC3)n2)cc(OC)c1OC,1.01
COc1cccc(CC2CN(Cc3cnc(-c4ccco4)nc3)CCO2)c1 (stereo not drawn),0.31
CCSc1nc(CC(=O)NCCCc2scnc2C)cs1,0.34
CN1CCc2c(sc3c2C(=O)NC(c2ccc(OC(=O)c4ccccc4)cc2)N3)C1 (stereo not drawn),0.8
CCOC(=O)c1c(C)oc2ncnc(Nc3cccc(C(F)(F)F)c3)c12,-1.14
CCn1ncnc1C(C)NC(=O)c1cccc(-c2ccc(C(=O)NC)o2)c1 (stereo not drawn),-0.55
CC(=O)N1CCc2c(sc3c2c(=O)n(-c2ccccc2)c(=O)n3CC(=O)Nc2cccc(C)c2)C1,0.06
Cc1csc(SCC(=O)NCc2ccc3nonc3c2)n1,0.37
COc1ccc(CCNC(=O)c2ccc(Cn3c(=O)c4ccccc4n(CC(=O)C(C)(C)C)c3=O)cc2)cc1OC,-2.03
CCOC(=O)c1c(NC(=O)COc2cccc(C)c2C)sc(C(C)=O)c1C,0.65
CC1CCN(C(=O)CSc2nnc(-c3ccccc3Cl)o2)CC1,0.52

# Brought forward from above: 2 entries, followed by the next part.
SMILES,fixLJ activator
CCOC(=O)c1c(NC(=O)COc2cccc(C)c2C)sc(C(C)=O)c1C,0.65
CC1CCN(C(=O)CSc2nnc(-c3ccccc3Cl)o2)CC1,0.52
Cc1cccc(-c2nc(S(=O)(=O)c3ccc(Cl)cc3)c(N3CCCCCC3)o2)c1,-0.74
CCCCCN1C(C(=O)c2ccccc2)=C(NC(=O)c2ccc(OC)c(OC)c2)c2ccccc2S1(=O)=O,-1.33
Cn1nccc1CCC(=O)Nc1ccc(Oc2nn[nH]n2)cc1,-0.62
Cn1nc(-c2ccccc2F)c2cc(C(=O)N3CCN(c4ccccc4F)CC3)sc21,1.26
CC(C)c1ccc(NC(=O)N2CCN(c3ccc(Cl)c(Cl)c3)CC2)cc1,1.7
COc1ccc(CNC(=O)Cc2c(C)c3c(cc(C)c4c(C)c(C)oc43)oc2=O)cc1OC,-2.18
COc1ccc(S(=O)(=O)c2nnn(-c3ccc(C)c(Cl)c3)c2C)cc1,0.99
Cc1cccc(CCNC(=O)N2CCCC2Cn2cccn2)n1 (stereo not drawn),0.54
O=[N+]([O-])c1ccc(O)c(-c2ccnc3cc(-c4ccccc4)nn23)c1,-0.89
CCn1nccc1C(=O)N1CCCN(C(=O)Cn2nc(C)cc2C)CC1,0.07
Cn1cc(C(=O)NCCc2ccccc2)c(=O)c2cc(S(=O)(=O)N3CCCCC3)ccc21,-0.94
Cc1ccc(NC(=O)[C@@H](c2ccccc2)N2Cc3ccccc3C2=O)cc1F,0.25
O=C(/C=C/c1ccccc1)Nc1cc(-c2nc3ccccc3o2)ccc1Cl,1.3
Cc1ccc(Cl)cc1NC(=O)c1ccc2snnc2c1,-0.69
CCOc1ccc(S(=O)(=O)N2CCN(c3cc(Cl)ccc3Cl)CC2)c2ccccc12,-2.51
Cc1cc(C)c(NC(=O)CCN2CCCCC2)c(C)c1,0.28
Cn1nc2c(c1C(=O)N1CCN(Cc3ncn[nH]3)CC1)CCCC2,-2.5
COc1cccc(C(=O)Nc2ccccc2-c2nnc(-c3cccc(OC)c3)o2)c1,-2.29
FC(F)(F)c1cc(Nc2nc3ccccc3c3nncn23)ccc1Cl,-0.13
CC(C)Nc1cc(-c2cc(OC(F)(F)F)ccc2O)ncn1,-0.91
Cc1ccc2oc(-c3ccc(NC(=O)c4cccc(F)c4)c(C)c3)nc2c1,-0.56
COC(=O)c1ccccc1NC(=O)Cn1c(=O)n(CCCCC(=O)NCc2ccc3c(c2)OCO3)c(=O)c2ccccc21,-1.15
Cc1ccccc1CN1CCCn2nc(CCC(=O)NC3CC3)cc2C1,-0.14
CCOc1ccccc1N1CC(c2nc3ccccc3n2CCCOc2ccc(OC)cc2)CC1=O (stereo not drawn),-2.57
O=C1CC(c2nnc(Cc3ccccc3Cl)o2)CN1c1ccccc1 (stereo not drawn),0.53

# Carrying on:
SMILES,fixLJ activator
COc1ccc(S(=O)(=O)NCCSc2nnnn2-c2ccccc2)cc1,-1.68
CCOC(=O)c1c(N)n(-c2cccc(C)c2C)c2nc3ccccc3nc12,-1.06
Cc1cccc(CC(=O)N2CC(=O)Nc3ccc(F)cc3C2c2ccccc2)c1 (stereo not drawn),-1.85
O=C(NCc1ccccc1)c1nn(-c2ccccc2)nc1CO,1.44
O=C(NCCSc1cn[nH]n1)N1CCN(Cc2ccco2)C(CCO)C1 (stereo not drawn),-1.59
COc1cccc(-c2ccc3c(N)c(C(=O)Nc4cc(C(F)(F)F)ccc4OC)sc3n2)c1,-1.69
CCOc1ccc(CCNS(=O)(=O)c2c(C)nc3scc(C)n3c2=O)cc1OCC,-1.09
CCOC(=O)Cc1c(C)nc2c(-c3ccc(OC)c(OC)c3)c(C)nn2c1C,-2.3
Cc1cc(C(F)(F)F)n2ncc(C(=O)NCCSc3cn[nH]n3)c2n1,-1.11
CSc1ccc(-c2nc3ncccn3c2Nc2ccc(C)c(C)c2)cc1,-2.03
COc1ccc2c(c1)NC(c1ccc(Cl)cc1)=NC(c1cccs1)=N2,-1.96
CC1CCc2c(sc(NC(=O)c3cc(-c4ccc(F)cc4)on3)c2C(N)=O)C1 (stereo not drawn),-1.27
CC(C)c1cc(C(=O)NC2COCC2Cc2ccncc2)n(C)n1 (stereo not drawn),-0.84
COc1cccc(-n2c(SCC(N)=O)nc3c(oc4ccccc43)c2=O)c1,-1.6
CCc1nnc(CNC(=O)Nc2ccc(Cc3n[nH]c(C)n3)cc2)s1,-0.54
CCc1ccc2oc(C(=O)Nc3ccccc3C(=O)OC)cc(=O)c2c1,-1.16
Cc1cnc(CN2CC3(CCCN(Cc4cscn4)C3)CCC2=O)cn1 (stereo not drawn),0.57
COc1cc2c(cc1Cn1ccnc1-c1cnn3cccnc13)CCC2,-0.54
O=C(c1nc2ccccc2c(=O)[nH]1)N1CC(O)C(Cc2ccccn2)C1 (stereo not drawn),-1.23
CNC(=O)C1CC(N)CN1C(=O)c1ccccc1NC(=O)C(C)C (stereo not drawn),-2.29
COc1ccccc1CCNS(=O)(=O)CCC1CCS(=O)(=O)C1 (stereo not drawn),-1.58
CCCOc1ccc(C2c3c(oc4ccccc4c3=O)C(=O)N2c2nnc(C(C)C)s2)cc1 (stereo not drawn),-2.26
Cn1cnnc1CCC(=O)N(Cc1cnn(-c2ccccc2)c1)C1CC1,-1.5
C[C@]12CCC(=O)C=C1C=CC1C2CC[C@@]2(C)C1CC[C@@]2(O)CCC(=O)O (stereo partly drawn),-0.67
CCCc1nc(C)c(CNC(=O)C2CC(C)NC(=S)N2)s1 (stereo not drawn),-0.02

# A few values from the list:
# In fixLJ activator, COc1cccc(-n2c(SCC(N)=O)nc3c(oc4ccccc43)c2=O)c1 shows -1.6
# In fixLJ activator, Cc1cc(C(F)(F)F)n2ncc(C(=O)NCCSc3cn[nH]n3)c2n1 shows -1.11
# In fixLJ activator, C[C@]12CCC(=O)C=C1C=CC1C2CC[C@@]2(C)C1CC[C@@]2(O)CCC(=O)O (stereo partly drawn) shows -0.67
# In fixLJ activator, Cn1cnnc1CCC(=O)N(Cc1cnn(-c2ccccc2)c1)C1CC1 shows -1.5
# In fixLJ activator, CCCc1nc(C)c(CNC(=O)C2CC(C)NC(=S)N2)s1 (stereo not drawn) shows -0.02
# In fixLJ activator, O=C(NCCSc1cn[nH]n1)N1CCN(Cc2ccco2)C(CCO)C1 (stereo not drawn) shows -1.59

# Additional results follow:
SMILES,fixLJ activator
CCOC(=O)c1c(NC(=O)/C=C/c2ccc(OCC)cc2)sc(C)c1C,-2.33
O=C(NCc1csc(-c2cnccn2)n1)c1cncc(O)c1,-2.25
O=C(COc1ccc(Br)cc1)Nc1ccc(Cl)cc1C(=O)c1ccccc1,0.63
CCC(=O)N1CCc2[nH]cnc2C12CCN(C(=O)Cn1cnc(C)c1C)CC2,-0.45
Clc1ccc(CO/N=C(\Cn2ccnc2)c2ccc(Cl)cc2Cl)c(Cl)c1,-1.47&-1.13
CC(=O)N1CCc2[nH]cnc2C12CCN(C(=O)c1cc3ccccc3[nH]1)CC2,-0.82
CC1CCC(Nc2nc3c(-c4cccc(C(F)(F)F)c4)nnn3c3ccccc23)CC1 (stereo not drawn),-1.34
Cc1cccc2[nH]c(CCN(C)C(=O)c3cccc4ccnn34)nc12,-0.32
COc1cc2nc(SCC(=O)Nc3ccc(F)cc3)n3nc(CCn4c(C)nc5ccccc54)nc3c2cc1OC,1.76
CC1=C(C(=O)Nc2ccccc2)C(c2ccc(C)cc2)n2nc(SCc3ccccc3C)nc2N1 (stereo not drawn),-0.46
CC1CCCN(Cc2c(O)ccc3c(=O)c(-c4ccccc4Cl)c(C(F)(F)F)oc23)C1 (stereo not drawn),-2.14
Cc1ccc(C)c(Cn2c(=O)n(CCCC(=O)NCc3ccc4c(c3)OCO4)c(=O)c3sccc32)c1,0.02
CCCOc1cccc(C2c3c(oc4cc(C)c(C)cc4c3=O)C(=O)N2CCCN2CCOCC2)c1 (stereo not drawn),-3.69
Cc1ccc(Nc2nc3c(S(=O)(=O)c4ccccc4)nnn3c3ccc(Cl)cc23)c(C)c1,1.59
Cc1ccc2occ(CC(=O)N3CCN(c4cccc(Cl)c4)CC3)c2c1,1.63
Cc1ccc(C)c(N2CCN(Cc3nnc(-c4ccc5c(c4)OCO5)o3)CC2)c1,-0.57
CCOC(=O)CSc1nnc2n(-c3ccccc3)c(=O)c3c4c(sc3n12)CC(C(C)(C)C)CC4 (stereo not drawn),-1.44
O=C(Cn1c(SCc2cccc(F)c2)nc2ccncc21)Nc1ccc(Cl)cc1F,-1.16
COc1ccc(C)cc1NC(=O)C(NS(=O)(=O)c1cccc2nsnc12)c1ccccc1 (stereo not drawn),0.08
O=C1CC2(CCN(Cc3ncc[nH]3)CC2)OCCN1CC1CCC1,0.31
CC(C)Oc1ccccc1-c1nc(SCC(=O)c2ccc(F)cc2)n[nH]1,-1.86
Cc1cc(C(=O)NC2COCC2N2CCOCC2)c2ccc(C)c(C)c2n1 (stereo not drawn),-0.09
Cc1[nH]c(=O)[nH]c(=O)c1CC(=O)NCc1ccc(-c2ncon2)cc1,-1.58
Cc1ccc(Nc2cc(C(=O)NCCc3ccccc3)c3ccccc3n2)c(C)c1,-0.76
COC(=O)c1c(NC(=O)CCCOc2cccc(C)c2)sc2c1CCC2,-0.92

# 2 compounds picked at random from those above:
SMILES,fixLJ activator
Cc1ccc(C)c(Cn2c(=O)n(CCCC(=O)NCc3ccc4c(c3)OCO4)c(=O)c3sccc32)c1,0.02
Cc1ccc(Nc2nc3c(S(=O)(=O)c4ccccc4)nnn3c3ccc(Cl)cc23)c(C)c1,1.59

# The main list resumes, repeating the three entries before the break.
SMILES,fixLJ activator
Cc1[nH]c(=O)[nH]c(=O)c1CC(=O)NCc1ccc(-c2ncon2)cc1,-1.58
Cc1ccc(Nc2cc(C(=O)NCCc3ccccc3)c3ccccc3n2)c(C)c1,-0.76
COC(=O)c1c(NC(=O)CCCOc2cccc(C)c2)sc2c1CCC2,-0.92
Cc1cc(C)cc(OCC(=O)N(Cc2ccc(C)o2)C2CCS(=O)(=O)C2)c1 (stereo not drawn),-0.38
Cc1ccc(Cl)cc1N(C)C(=O)Cn1nc(Cc2cccnc2)c2ccccc2c1=O,-0.75
CCCCN1CCn2nc(CNC(=O)N(C)CC3CCOC3)cc2C1 (stereo not drawn),-1.28
O=C(c1ccc2ccccc2n1)N1CC2CCC(C1)N(CC1CC1)C2=O (stereo not drawn),0.22
CCCOc1ccc(-c2nonc2NC(=O)c2ccco2)cc1OCCC,-0.14
Cc1ccc(C(C)C)c(OCC(=O)Nc2c(C(=O)c3ccc(F)cc3)oc3ccccc23)c1,-0.67
O=C(Nc1cc(F)ccc1F)C1CCN(C(=O)c2cnn(-c3ccccc3)c2-n2cccc2)CC1,-2.09
O=C(NCCCCO)C1CCCN(C2CCN(Cc3ccncc3)CC2)C1 (stereo not drawn),0.29
Cc1c(CN2CCOC3(CCN(C(=O)Cc4cccc(O)c4)CC3)C2)cnn1C,0.23
CCc1nn(CC(=O)NCCCc2ccccc2)c(=O)c2cc3cc(F)ccc3n12,-1.46
Cc1cccc(Oc2nc3c(c(=O)n(C)c(=O)n3C)n2C)c1C,0.14
Cc1ccc(-c2nc3c(C)cccn3c2Nc2ccccc2C)s1,0.12
COc1ccc(N(C(=O)c2cccc(C)c2)S(=O)(=O)c2ccc3c(c2)n(C)c(=O)n3C)cc1,0.09
Cc1ccccc1NC(=O)CSc1nc2c(oc3ccccc32)c(=O)n1Cc1ccco1,-1.6
COc1cccc(C(=O)NCCC(=O)N2CC(N3CCOCC3)C2)c1,0.08
Cc1ccc(C)c(OCC(=O)NC2COCC2Cc2ccncc2)c1C (stereo not drawn),0.41
CC(C)CCOc1ccc(C(=O)NCC2OCCc3ccccc32)cc1 (stereo not drawn),-2.3
COC(=O)c1ccccc1NC(=O)Cn1c(=O)n(-c2ccc(Cl)cc2)c(=O)c2c(C)c(C)sc21,0.83

# Not all compounds are listed, so the mix of outcomes need not match the whole.
